YopH PTP inh: blocks Yersinia enterocolitica YopH tyrosine phosphatase | 0.16% of 140,000 active | inhibition, %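 (about 10 µM by stock and volumes)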 | fluorescence Ex485/Em525;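 active means inhibition of 50% or more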;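 further: controls were vehicle for no effect and minimum signal wells for full effect; inactives centre near -20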
RecA splice inh: inhibitors of M. tuberculosis RecA intein splicing; inhibition, %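 (about 9 µM by stock and volumes)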; AID 2221; cell-free RecA intein splicing, fluorescence; 0.75% of 290,000 active; P9WHJ3; in the data active means inhibition above about 30%; inconclusive means no clear call, values can overlap the other calls;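 further: 0% = vehicle wells and 100% = reference inhibitor control wells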
Target sequence (P9WHJ3 whole entry, looked up, canonical isoform): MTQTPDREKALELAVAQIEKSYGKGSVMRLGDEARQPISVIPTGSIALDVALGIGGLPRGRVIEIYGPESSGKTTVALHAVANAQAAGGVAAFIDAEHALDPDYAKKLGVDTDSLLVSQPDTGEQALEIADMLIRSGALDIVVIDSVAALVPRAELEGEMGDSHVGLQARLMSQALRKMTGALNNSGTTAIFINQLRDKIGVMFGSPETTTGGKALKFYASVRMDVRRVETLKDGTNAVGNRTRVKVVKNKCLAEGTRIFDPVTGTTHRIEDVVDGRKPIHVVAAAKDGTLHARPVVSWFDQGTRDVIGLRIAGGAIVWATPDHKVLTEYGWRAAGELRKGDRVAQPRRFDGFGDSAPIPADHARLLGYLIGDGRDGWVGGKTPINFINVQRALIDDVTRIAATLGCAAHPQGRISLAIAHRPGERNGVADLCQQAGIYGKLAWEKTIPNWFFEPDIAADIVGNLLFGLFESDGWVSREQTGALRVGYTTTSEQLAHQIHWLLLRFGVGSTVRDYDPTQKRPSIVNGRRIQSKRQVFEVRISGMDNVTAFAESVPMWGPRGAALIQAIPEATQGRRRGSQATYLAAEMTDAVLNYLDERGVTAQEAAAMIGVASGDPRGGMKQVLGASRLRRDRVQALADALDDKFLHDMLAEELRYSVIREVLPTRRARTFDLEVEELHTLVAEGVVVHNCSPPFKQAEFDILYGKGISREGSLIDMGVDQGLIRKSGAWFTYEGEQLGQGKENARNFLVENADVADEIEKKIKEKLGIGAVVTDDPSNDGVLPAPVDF
Mtb betalactam: beta-lactam sensitization of Mtb H37Rv. 0.27% of 330,000 active. inhibition, % at 25 µM. AID 434955. M. tuberculosis H37Rv growth with meropenem, percent inhibition; hits of this screen are not shown here;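 active means about 74% or more and at least 40 points above the plate without the antibiotic, then above 30% in a dose series; inconclusive means first-round hits that could not be retested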;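 further: growth measured after seven days incubation then overnight dye step; 0% = bacteria only wells and 100% = bacteria with antibiotic; twin plates without the antibiotic show which effects depend on it; some results filed as inactive read as strong as hits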
Arbovirus inh: arbovirus infection inhibition | arbovirus infection cell-based antiviral screen | inhibition, % at 10 µM | 0.37% of 200,000 active;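 active means inhibition from about 30%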;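 further: bluetongue infection of BSR cells; cell survival read as ATP light after 72 h; 0% = infected wells without compound and 100% = uninfected wells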
Mtb H37Rv: M. tuberculosis H37Rv growth inhibitors, H37Rv strain (AID 1626). M. tuberculosis H37Rv growth inhibition; higher % means a stronger effect. inhibition, % at 10 µM, or IC50 in µM where a hit was titrated. 0.95% of 220,000 active;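 active means confirmed in a dose series; inconclusive means inhibition above 80% but not taken into the dose series; inactive means below 80% or under 30% at every dose of the series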;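 further: bacteria incubated seven days before Alamar blue readout; 0% = bacteria only wells and 100% = bacteria with antibiotic wells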
Arbovirus inh repeat: also measured in Arbovirus inh; calls as there; inhibition, %; measured here: 10K subset replicate screen; many hits read low in the repeat;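 first of two repeat runs on a subset; 0% = infected and 100% = uninfected wells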
Active calls of the source: *; u = inconclusive; x = not tested or not shown. The list is partial; rates above refer to the full screens.

SMILES	YopH PTP inh	RecA splice inh	Mtb betalactam	Arbovirus inh	Mtb H37Rv	others
CC(C)C(NC(=O)c1ccccc1)C(=O)NC1=NCCS1 (centres undefined)	-123	0.2	-3	-3	-3%
COc1ccc(CC(=O)NCC2CCCCC2)cc1OC	x	-0.7	-8	x	x
O=C(NCCS(=O)(=O)c1ccc(Br)cc1)c1c(F)cccc1F	x	-0.3	-6	x	x
CCN(CC)c1ccc(NC(=O)COc2ccccc2C#N)cc1S(=O)(=O)Nc1ccc(OC)cc1	-46	1.4	-7	2	-2%
CC(C)CCNC(=O)NC(=O)Cn1cc(C(F)(F)F)ccc1=O	-10	x	x	-6	-1%
CCN(CC)CCNC(C(=O)Nc1cccc(C(C)=O)c1)c1ccccc1 (centres undefined)	x	-0.3	2	3	0%
C[C@H](NC(=O)Cn1cncn1)c1ccccc1	-24	-2.0	2	0	-11%
Cc1ccc(CSc2nnc(Cn3c(=O)sc4ccccc43)n2C)cc1	-36	0.4	0	-3	-3%	Arbovirus inh repeat=-4
Cn1c(CSCC(=O)Nc2ccccc2)nnc1SCc1ccccc1	x	-1.5	-6	x	-10%
COCCNc1nc2c(c(=O)n(C)c(=O)n2C)n1Cc1cccc(C)c1	-26	-3.1	1	17	3%
CCOC(=O)c1c(C)nc2sc3c(c2c1-c1ccc(OC)cc1)NC(c1ccc(OC)cc1)NC3=O (centres undefined)	-33	-2.0	-4	2	17%
CN(C(=O)c1cccnc1)c1nc(-c2ccccc2)cs1	-44	-3.1	6	-1	-1%
COc1ccccc1NC(=O)N1CCC(C(=O)c2ccc(Cl)cc2)CC1	x	-0.1	-10	x	x
Cc1cc(=O)oc2c(CN3CC(C)OC(C)C3)c(O)c(Cl)cc12 (centres undefined)	x	-121	2	1	0%
CCOC(=O)C1CCN(c2ncnc3c2oc2ccc(Br)cc23)CC1	-25	9.5	-5	-8	x
CCn1c2c(c3cc(C(=O)O)ccc31)CCCC2=O	-17	-1.6	-10	13	-2%
O=C1CC(c2ccco2)Cc2nc(N3CCc4ccccc4C3)ncc21 (centres undefined)	-41	5.9	11	-6	2%
CCN1CCN(CC(=O)N2c3ccccc3Sc3ccccc32)CC1	x	-1.2	0	x	x
Cc1cc(C)n2nc(CCCCc3nc4nc(C)cc(C)n4n3)nc2n1	x	-1.3	-2	2	-2%
COc1cc(C2C(C#N)=C(N)Oc3cc(C)oc(=O)c32)ccc1OC(=O)N1CCOCC1 (centres undefined)	-28	-1.0	1	0	-3%
CC(OC(=O)Cc1coc2ccc3ccccc3c12)C(=O)NC(N)=O (centres undefined)	x	-14	79	x	1%
Cc1nn(Cc2ccccc2)c(C)c1NC(=O)c1cc(-c2ccco2)on1	-10	-1.6	78	2	7%
COc1ccc(CNc2nnnn2C)c(OC)c1	x	-1.1	-13	x	x
Nc1c(C(=O)c2ccc(Cl)cc2)sc2nc3c(cc12)CCC3	18	-1.2	2	-6	0%
O=C(O)CCCCCNS(=O)(=O)c1ccc2c(c1)OCCO2	x	3.5	1	-2	2%
Cc1nonc1CN(C)C(=O)CC1C(=O)NCCN1Cc1ccc(F)c(F)c1 (centres undefined)	x	-1.5	0	2	-3%
N#Cc1sc(=O)[nH]c1Cl	x	-1.6	-4	x	-10%
CCn1c(SC(C)C(=O)O)nnc1-c1cccnc1 (centres undefined)	-11	-1.0	-7	8	4%
O=C(NCC(=O)N(c1ccccc1)C(C(=O)NCC1CCCO1)c1ccccc1)c1ccco1 (centres undefined)	-37	3.1	-6	12	-4%
CC(NC(=O)COc1ccc(S(=O)(=O)N2CCCC2)cc1)c1ccccc1 (centres undefined)	x	-3.1	-5	x	x

No new results follow: entries from further up.
SMILES	YopH PTP inh	RecA splice inh	Mtb betalactam	Arbovirus inh	Mtb H37Rv	others
Cc1cc(C)n2nc(CCCCc3nc4nc(C)cc(C)n4n3)nc2n1	x	-1.3	-2	2	-2%
COc1cc(C2C(C#N)=C(N)Oc3cc(C)oc(=O)c32)ccc1OC(=O)N1CCOCC1 (centres undefined)	-28	-1.0	1	0	-3%
CC(OC(=O)Cc1coc2ccc3ccccc3c12)C(=O)NC(N)=O (centres undefined)	x	-14	79	x	1%
Cc1nn(Cc2ccccc2)c(C)c1NC(=O)c1cc(-c2ccco2)on1	-10	-1.6	78	2	7%
COc1ccc(CNc2nnnn2C)c(OC)c1	x	-1.1	-13	x	x

Carrying on:
SMILES	YopH PTP inh	RecA splice inh	Mtb betalactam	Arbovirus inh	Mtb H37Rv	others
CC(=O)c1sc2nc(SCC(=O)N3CCCCC3)[nH]c(=O)c2c1C	-32	3.8	-6	5	3%
COc1ccc(C2NC(=O)Cc3cc(OC)c(OC)cc32)cc1OC (centres undefined)	x	2.6	2	x	-12%
CN(c1ccccc1)S(=O)(=O)c1cccc(NC(=O)CC(C)(C)C)c1	-26	1.3	1	1	2%
CCC(=Nc1ccccc1)C1=C(O)CCCC1=O	x	1.6	-3	x	-4%
CS(=O)(=O)Nc1ccccc1C(=O)Nc1cc(Cl)cc(Cl)c1	10	1.1	4	10	-8%
CCN(CC)c1ccc(NC(=O)C2CC3CCC2C3)cc1 (centres undefined)	1	-5.6	90	-1	0%	Arbovirus inh repeat=9
COc1ccc2c(c1)C(=O)C(=O)N2	-27	8.0	1	-15	9%
Cc1cc(C)c(C)c(S(=O)(=O)N2CCC(C(=O)OCC(=O)N3c4ccccc4NC(=O)C3(C)C)CC2)c1C	-18	26	-16	6	2%
CC(=O)N1CCC2(CC1)C/C(=N\NC(=S)Nc1ccccc1F)c1cc(O)ccc1O2	x	-7.7	0	16	2%
COc1ccc2[nH]cc(CCN)c2c1	-6	x	-1	1	-5%
Cc1ccc(NC(=O)Cc2cccs2)cc1Cl	x	5.1	68	x	x
O=C(CCc1nnc(-c2ccccc2)o1)NC1CCCCC1	x	-1.3	1	3	-12%
COc1ccc(Br)cc1CNC(=O)CCNC(=O)Cn1ccc2ccccc2c1=O	x	-1.3	-7	-4	2%
O=C(c1cnc2n(c1=O)CCS2)N(C1CCCCC1)C1CCCCC1	-15	-3.3	-5	8	-2%	Arbovirus inh repeat=5
CCN(CC)CCN1C(=O)c2ccccc2NC1c1ccc(F)cc1 (centres undefined)	0	-9.3	-5	4	5%
COC(=O)c1ccccc1NC(=O)C1CC=CCC1C(=O)O (centres undefined)	5	-1.7	1	1	-9%
N/C(=N\O)c1ccc([N+](=O)[O-])s1	x	-10	46	x	1%
CCNC(=O)c1oc2c(c1C)C(=O)CC(C)(C)C2	13	-0.4	-13	-6	-12%
Cn1c(C(=O)NCCc2c[nH]c3ccccc23)cc2sccc21	-50	1.9	-3	22	13%	Arbovirus inh repeat=7
COc1ccc(CC(=O)NCc2cccs2)cc1OC	-32	1.8	-1	7	8%
CN(C)CCCN(C(=O)/C=C/c1cccs1)c1nc2c(F)cccc2s1	x	-5.9	x	-14	15%
Nc1ccccc1C(=O)NC1CCCCNC1=O (centres undefined)	x	0.2	11	x	-11%
COc1ccc2ccccc2c1/C=N/NC(=O)c1ccccc1F	x	-0.1	96	x	x
CC(NC(=O)CN(C)S(=O)(=O)c1cnc[nH]1)c1ccccc1 (centres undefined)	x	-1.0	16	1	-8%
Cc1ccc(CCNC(=O)CC(C)CC2=NS(=O)(=O)c3ccccc3N2)cc1 (centres undefined)	x	-3.6	-1	x	x
CC[N+](CC)(CC#Cc1ccccc1)CC#Cc1ccccc1	x	0.3	-8	x	2%
CC(=O)N(C)c1ccc(N=Cc2cc3c(cc2[N+](=O)[O-])OCO3)cc1	x	-5.0	-5	x	x
O=C(CSCc1ccc([N+](=O)[O-])cc1)N/N=C/c1ccncc1	x	-1.6	99	0	u
O=C(NCC(=O)N(c1cccc(F)c1)C(C(=O)NCC1CCCO1)c1ccccc1)c1ccco1 (centres undefined)	-21	1.1	-10	7	-2%
COc1ccc(OC)c(S(=O)(=O)ON2C(=O)c3ccccc3C2=O)c1	x	19	0	x	x
CCOc1cc(CNC)ccc1OCC(=O)NC(C)(C)C	x	3.0	8	4	-3%
Cc1csc(SCc2ccccc2C(=O)O)n1	-19	-0.1	2	4	-5%
COc1ccc(NC(=O)CN(C)C(=O)c2ccccc2OCC(=O)Nc2cccc(C(F)(F)F)c2)cc1	x	0.6	-9	x	x
COc1ccccc1NC(=O)C(C)NC(c1ccccc1)c1ccccc1 (centres undefined)	x	0.9	-9	x	x
CN(Cc1ccccc1)C(=O)CSc1nc2c(c(C(F)(F)F)n1)CCc1ccccc1-2	-23	4.6	u	x	-7%
Clc1ccc(CSc2nnc(-c3cccnc3)n2Cc2ccco2)c(Cl)c1	-28	3.3	0	8	-3%	Arbovirus inh repeat=5
CC(C)NS(=O)(=O)c1ccc(OCC(=O)N(C)Cc2ccccc2)cc1	-8	-0.8	-7	3	-2%
O=C(NC(=S)Nc1ccc(Cl)cn1)c1cccs1	-13	-0.8	-10	0	-4%
C=C(CC1([C@@H](NP(=O)(c2ccccc2)c2ccccc2)[C@H]2C[C@@H]2CCCC)CC1)c1ccccc1	-5	2.3	-5	-6	2%
O=C(CSc1nnc(NC(=O)C2CCC2)s1)Nc1ccccc1	x	0.3	-3	x	x
O=S1(=O)N(Cc2ccccc2F)CCCN1Cc1c(F)cccc1Cl	x	13	4	x	x
C=CCNC(=S)Nc1ccc(Cl)c(S(=O)(=O)N2CCOCC2)c1	x	-2.2	-7	11	2%
O=C1c2ccccc2C(=O)c2c1oc(C(F)(F)F)c2C(=O)c1ccccc1	-22	39*	6	-27	18%
Cc1onc(-c2ccccc2Cl)c1C(=O)c1ccccc1	x	6.1	-2	x	-6%
O=C1c2ccccc2NC(c2ccc(O)cc2)N1c1ccccc1 (centres undefined)	x	-3.1	6	x	x
O=C(c1cccc(Cl)c1)N1CCN(c2ncnc3c2cnn3-c2ccccc2)CC1	x	1.8	-3	0	15%
CCOC(=O)C1(Cc2cccc(OC)c2)CCCN(C(=O)CNC(C)=O)C1 (centres undefined)	x	-0.4	3	x	x
CC(Oc1ccc2ccc(=O)oc2c1)C(=O)c1ccccc1 (centres undefined)	-23	2.0	4	1	1%
Cc1cc(C)nc(Sc2ccc(C=O)cc2[N+](=O)[O-])n1	x	2.4	-4	0	3%
Cc1ccc([N+](=O)[O-])c(OCCCN2C(=O)NC(C)(C)C2=O)c1	x	0.7	-1	5	0%
COc1ccc(C2=CC(=O)CC(c3ccccc3)C2)cc1 (centres undefined)	x	7.2	7	15	12%
Cc1ccc(-c2nnn(CC(=O)N(Cc3ccccc3)C(C(=O)NC(C)(C)C)c3ccncc3)n2)o1 (centres undefined)	-24	0.4	-2	1	-2%
Cc1csc(NC(=O)c2ccc(OCC3CCCO3)cc2)n1 (centres undefined)	x	0.0	-6	-17	-8%
O=C(CCNS(=O)(=O)c1ccc(Br)cc1)NCc1ccc(Cl)cc1	x	-0.5	0	x	x
Cc1ccc(C(=O)O/N=C/c2c(N3CCOCC3)n(C)c3ccccc23)cc1	-49	4.1	68	-3	74%
CC(C)c1cc(=O)[nH]c(N2CCN(Cc3ccc4c(c3)OCO4)CC2)n1	x	-3.2	14	x	x
Cn1c(Cn2c(=O)sc3ccccc32)nnc1SCC(=O)N1CCCCCC1	-12	0.3	-5	4	4%	Arbovirus inh repeat=-2
COC(=O)c1cc(NC(=O)c2cccc(Cl)c2)c(=O)oc1/C=C/Nc1cc(C)cc(C)c1	x	-1.6	1	9	5%
O=C(N/N=C/c1ccc(Br)s1)c1ccncc1	x	-2.0	99	27	u
CS(=O)(=O)C1=NSC2=NC(=O)/C(=C\c3ccc(-c4ccccc4)o3)C(=N)N21	-14	x	0	60*	-1%

In the list so far, these contain a COOH group.
SMILES	YopH PTP inh	RecA splice inh	Mtb betalactam	Arbovirus inh	Mtb H37Rv	others
CCn1c2c(c3cc(C(=O)O)ccc31)CCCC2=O	-17	-1.6	-10	13	-2%
O=C(O)CCCCCNS(=O)(=O)c1ccc2c(c1)OCCO2	x	3.5	1	-2	2%
CCn1c(SC(C)C(=O)O)nnc1-c1cccnc1 (centres undefined)	-11	-1.0	-7	8	4%
COC(=O)c1ccccc1NC(=O)C1CC=CCC1C(=O)O (centres undefined)	5	-1.7	1	1	-9%
Cc1csc(SCc2ccccc2C(=O)O)n1	-19	-0.1	2	4	-5%

The list continues.
SMILES	YopH PTP inh	RecA splice inh	Mtb betalactam	Arbovirus inh	Mtb H37Rv	others
Cc1ccc2c(c1)NC(=O)c1cccnc1N2	2	-1.2	-5	-5	x
CSc1ccccc1C(=O)Nc1ncc(C)s1	-16	0.3	0	6	-1%
CCN1CCN(C(=S)Nc2ccccc2Cl)CC1	-17	-0.7	2	0	-1%
CCC(=O)c1ccc(OCc2ccc(C(=O)OC)o2)c(OC)c1	-13	2.3	36	-1	4%
O=C(Nc1ccc(NC(=O)c2sc3ccccc3c2Cl)cc1Cl)c1ccco1	-16	-0.2	-4	-6	x
CCOc1ccc(C2=Nn3cnnc3SC2)cc1	-39	2.1	-18	-6	-5%

Screening data deposited in PubChem by several laboratories.
